GIV Gai3 FP = inhibitors of GIV peptide binding to Galpha-i3, primary screen, biochemical, fluorescence polarization, FITC-GIV GBA peptide, rat Galphai3; AID 1224905, 2016; percent of control (FP), % (test concentration not listed); 210,000 compounds, 0.42% hits; 90 min; active compounds read low; scaled: aluminum fluoride 0%, vehicle 100%;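 active means replicate mean at 85% of control or lower, very high polarization wells dropped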;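 further: lower values mean more displacement of the GIV peptide from Galpha-i3; wells of about 15 µL received 100 nL stock; the first replicate is given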
Target sequence (P08753 whole entry, looked up): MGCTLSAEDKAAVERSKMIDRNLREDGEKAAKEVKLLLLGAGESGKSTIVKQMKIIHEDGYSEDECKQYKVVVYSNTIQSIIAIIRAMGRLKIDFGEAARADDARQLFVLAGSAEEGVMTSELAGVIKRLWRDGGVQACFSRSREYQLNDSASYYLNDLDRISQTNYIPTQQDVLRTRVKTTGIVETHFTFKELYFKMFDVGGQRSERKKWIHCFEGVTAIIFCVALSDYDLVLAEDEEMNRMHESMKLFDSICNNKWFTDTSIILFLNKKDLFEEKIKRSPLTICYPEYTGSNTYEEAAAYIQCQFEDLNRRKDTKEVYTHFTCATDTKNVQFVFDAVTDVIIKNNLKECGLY
HCMV NEC inh = inhibitors of HCMV UL50-UL53 interaction, biochemical, HTRF; HCMV UL50-UL53 nuclear egress complex (human cytomegalovirus); 190,000 compounds, 0.15% hits; inhibition, % (test concentration not listed); normalized percent inhibition; AID 1918969, 2023;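 active means both replicates at 50% or more, plus weaker picks with an unusually low signal ratio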;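 further: stock transfer was 100 nL into about 20 µL; 0% = negative control wells and 100% = wells with untagged competitor protein; inactives centre near -12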
Sa growth 42C = S. aureus growth inhibition at 42 and 30 °C, primary screen, LtaS inhibitor project, RN4220, two temperatures; 170,000 compounds, 0.53% hits; OD600, 20 h, 42 °C; active compounds read low; relative growth, % (concentration not given with the values);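 active means growth at 42 °C up to 50% and 20 or more points under that at 30 °C, or under 10% at both; inconclusive means no clear call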;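 further: 300 nL library stock went into each well; scaled to the means of positive and negative controls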
Sa growth 42C second temp = also measured in Sa growth 42C; calls as there; relative growth, %; measured here: growth at 30 °C;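 optical density after 20 h as mean of two plates; 100% = untreated growth and lower means inhibition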
Numbers without * were called inactive; ? = inconclusive; . = not tested or not shown; & = joins results of further samples.

A first look, 2 compounds:
SMILES	GIV Gai3 FP	HCMV NEC inh	Sa growth 42C	Sa growth 42C second temp
Cc1cccn2cc(-c3cccc(NC(=O)C(C)C)c3)nc12	107	-23	110	88
Cc1ccc(CNC(=O)CN2CCOc3ccccc32)cc1	106&100	-10	109	106

The list itself, from the first entry:
SMILES	GIV Gai3 FP	HCMV NEC inh	Sa growth 42C	Sa growth 42C second temp
Cc1cccn2cc(-c3cccc(NC(=O)C(C)C)c3)nc12	107	-23	110	88
Cc1ccc(CNC(=O)CN2CCOc3ccccc32)cc1	106&100	-10	109	106
CCOCCOC(=O)C1=C(C)NC2=C(C(=O)CC(c3ccc(Cl)cc3)C2)C1c1cccc([N+](=O)[O-])c1 (stereo unspecified)	100	-11	.	.
CN(C)c1ccc(-c2nc3ccccc3o2)cc1	97	-9	107	101
Cc1ccc(-n2c(-c3ccccc3)csc2=NC(=O)c2ccccc2)cc1	111	.	111	91
Cc1ccc(NC(=O)C2CCCN(c3ccc4cc(S(=O)(=O)N5CCCCC5)ccc4n3)C2)cc1 (stereo unspecified)	105	-20	.	.
CCOC(=O)c1cc(S(=O)(=O)NCC2CCCO2)cn1C (stereo unspecified)	97	.	95	86
Cn1c(=O)cc(SCC(=O)N2CCC(Cc3ccccc3)CC2)c2cc(Cl)ccc21	103	-21	.	.
COc1ccc(-n2c(Cc3ccccc3)nnc2SCc2nc(-c3ccccc3C)no2)cc1	101	-30	96	79
CC1CCN(C(=O)CSC2=NCCS2)CC1	.	-31	101	83
CCCCN(C)CCCNC(=O)CN1C(=O)COc2ccc(S(=O)(=O)N3CCOCC3)cc21	105	-21	99	94
Cc1cc(C)n2nc(Nc3ccccc3)cc2n1	.	3	?	.
CC(=O)N1c2ccccc2CC1C(=O)N1CCN(c2cc(Cl)ccc2C)CC1 (stereo unspecified)	103	.	95	78
CC1Cc2cc(S(=O)(=O)CCC(=O)Nc3ccc(F)c(Cl)c3)ccc2N1C(=O)C1CC1 (stereo unspecified)	99	.	182	102
Cc1ccc(OCCSc2nc3ccccc3n2CC(O)CO)cc1 (stereo unspecified)	105	8	.	.
CN(C)c1ccc(/C=C(\C#N)C(=O)OCc2ncc(-c3ccccc3)o2)cc1	.	-17	86	101
COc1ccc(C2=NN(C(=O)CCC(=O)O)C(c3ccc(C)cc3)C2)cc1OC (stereo unspecified)	102	-28	.	.
CNC(=O)C1CCN(S(=O)(=O)c2ccc3c(c2)nc(C)n3C2CCCC2)CC1	103	.	83	86
COc1cccc(-c2nc(CN3CCN(c4ccccc4OC)CC3)cs2)c1	.	-23	75	42
CCc1nonc1NC(=O)c1ccc(C)cc1	97	.	106	87
CC1CCN(S(=O)(=O)c2ccc3c(c2)oc(=O)n3CC(=O)N2CCN(C3CCCCC3)CC2)CC1	113	-2	.	.
Cc1ccccc1NC(=O)N1CC(C)CC(C)C1 (stereo unspecified)	101	8	91	94
CCOC(=O)C1CCCN(C(=O)c2c(C)nn(-c3ccc(F)cc3)c2-n2cccc2)C1 (stereo unspecified)	109	.	114	98
CCCN1C(=O)/C(=C/c2ccc(C(C)C)cc2)SC1=S	.	-31	90	87
O=C(c1ccccc1)n1nc(-c2ccco2)nc1NCc1cccs1	103	-32	102	83
COc1c(C(N)=O)csc1Br	111	-2	117	88
Cc1ccccc1-c1nc(CN2C(=O)COc3ccccc32)no1	107	-24	.	.
O=C(CN1C(=O)COc2ccc(S(=O)(=O)N3CCCCC3)cc21)NCc1ccc(F)cc1	104	.	94	82
CC(NC(=O)c1ccc(F)cc1Cl)C(c1cccs1)N1CCCC1 (stereo unspecified)	.	-13	104	88
CC(=O)N(c1ccccc1)c1nc(CSc2nnc(-c3ccc(Cl)cc3)o2)cs1	.	-16	82	88
CCCCc1nn2c(=O)cc(COC(=O)c3ccccc3C)nc2s1	100	.	102	89
CC(NC(=O)C1CCC(=O)N1Cc1ccccc1Cl)c1ccc2c(c1)OCCO2 (stereo unspecified)	101	0	107	98
Cc1ccccc1OCCn1c(=N)n(C(C)C)c2ccccc21	104	-22	120	73
COc1ccc(NC(=O)Cc2noc3ccc(C)cc23)cc1Cl	102	9	101	99
Cn1c2c(c(=O)n(C)c1=O)C(O)(C(F)(F)F)C(=O)N2 (stereo unspecified)	104	-10	104	88
CN(C)C=NC(=O)c1ccc(-c2cccs2)s1	110	13	101	93
CC(Sc1nnc(-c2c[nH]c3ccccc23)o1)C(=O)Nc1ccccc1 (stereo unspecified)	.	-2	108	79
CCc1ccc(NC(=S)N(CCCN2CCCCC2)Cc2cccs2)cc1	96	.	96	85
COc1cccc(CNC(=O)C2c3ccccc3C(=O)N3CCc4cc(OC)c(OC)cc4C23)c1 (stereo unspecified)	111	6	89	100
COc1cc(/C=C2\SC(N)=NC2=O)ccc1OCc1ccc(C)cc1	157	-21	.	.
O=C(NC1CCCC1)c1cccc(Nc2ccc(-c3cccc(F)c3)nn2)c1	104	-38	.	.
CC1(C)Cc2c(c(N3CCOCC3)nc3sc4c(NCCCO)nnnc4c23)CO1	105	-17	92	91
CCn1c(C)[n+](CC)c2ccccc21	97	-19	90	83
COC(=O)CSc1ccnc2cc(Cl)ccc12	96	-19	80	87
O=C(c1csc(S(=O)(=O)N2CCCC2)c1)N1CCCC1	107	-21	.	.
COc1ccccc1C1CCN(C(=O)c2ccco2)CC1	100	-26	96	87
C/C(=N\O)C(=O)NCc1cccnc1	103	-2	115	108
COC(=O)c1ccc2c(c1)N(CC(=O)Nc1ccc(C)cc1Cl)C(=O)c1ccccc1S2	99	.	93	91
Cc1ccc(CNC(=O)c2cnc3sc(N4CCCCC4)nn3c2=O)cc1	100	-18	.	.
Cc1nnc(SCC(=O)c2ccc3c(c2)NC(=O)CO3)n1C1CC1	.	-34	93	87
CCCN1C=C(OC(=O)C(C)C)c2ccccc2S1(=O)=O	100	-14	.	.
CCCn1c(=O)c2ccc(C(=O)NC(C)C)cc2n2c(SCC(=O)c3ccccc3)nnc12	104	-32	.	.
COc1cccc(=O)c2c(C)n(C)c(C)c12	.	-97	108	62
CC1=C(C(=O)Nc2cc(C(=O)NCCc3ccc(S(N)(=O)=O)cc3)ccc2C)SCCO1	100	38	.	.
Cc1onc(-c2ccccc2)c1-c1[nH]nc(N)c1C#N	107	1	107	80
FC(F)(F)c1nc2ccccc2nc1-c1cccc(Cl)c1	.	-3	110	86
COc1cc(OC)c(NC(=O)C2CCCN(S(=O)(=O)c3cc4c(cc3Cl)NC(=O)CO4)C2)cc1Cl (stereo unspecified)	100	-14	.	.
CCOC(=O)CCc1c(C)nn(-c2ccc3nnc(C)n3n2)c1C	106	.	95	87
O=C(NCCN1CCOCC1)c1ccc2c(c1)N(Cc1ccc(Cl)cc1)CCS2	105	-2	100	84
O=c1c2cc3ccccc3oc-2nn1-c1ccc(Cl)cc1	106	.	129	100

Additional compounds follow:
SMILES	GIV Gai3 FP	HCMV NEC inh	Sa growth 42C	Sa growth 42C second temp
CC1CN(c2nc(-c3ccccc3)nc3ccccc23)CC(C)O1 (stereo unspecified)	105	.	81	81
CC(C)S(=O)(=O)c1csc(NC(=O)Nc2cc(C(F)(F)F)cc(C(F)(F)F)c2)c1Cl	101	-38	94	83
Cc1ccc2nc3c(cc2c1)CCN3S(=O)(=O)c1ccc(F)cc1	103	-14	.	.
COC(=O)CSc1nnc(C2CCCCC2)o1	103	19	77	99
CC1CCN(C(=O)CSc2nnc(Cc3cccn3C)n2CCc2ccccc2)CC1	95	-38	.	.
Cn1c(=O)c(=O)n(C)c2cc(S(=O)(=O)N3CCc4ccccc43)ccc21	137	-13	117	93
COc1ccccc1N(CCCN1C(=O)c2cccc3cccc(c23)C1=O)C(=O)c1cccs1	102	6	.	.
COc1ccc(NC(=O)CCCc2nnc3n(CCC(C)C)c(=O)c4sccc4n23)c(OC)c1	98	.	125	90
CCOc1ccc(S(=O)(=O)Nc2ccc3c(c2)CCCN3S(=O)(=O)c2ccc(C)cc2)cc1	102	.	99	92
CCOC(=O)N1CCC(Nc2nc3ccccc3nc2NS(=O)(=O)c2ccc(Cl)cc2)CC1	102	.	90	93
O=C(CN1CCCCC1)N/N=C/c1ccc(Cl)cc1	99	-54	90	94
CC(C)(C(=O)Nc1ccc2c(c1)OCO2)C(=O)Nc1ccc2c(c1)OCO2	103	4	76	99
CCOc1ccc(N(C(=O)c2ccc(Cl)cc2)S(=O)(=O)c2ccc3c(c2)n(C)c(=O)n3C)cc1	96	-3	93	93
CCc1ccc(NC(=O)c2ccc3c(c2)N(CC)CCS3)cc1	101	.	105	84
CCOC(=O)c1ccc(Nc2nc3nonc3nc2NCc2ccco2)cc1	105	-23	50	39
CCCN1C(=O)/C(=N\OCC(=O)Nc2ccc3c(c2)OCO3)c2ccccc21	.	-50	88	92
O=c1cc(NCCc2ccccc2)c2ccccc2o1	107	22	81	90
CCCOc1ccc(CNC(=O)Cn2ncc3ccccc32)cc1	105	2	94	80
CC(C(=O)N(C)c1ccccc1)N1CCN(c2ccc(C(F)(F)F)cn2)CC1 (stereo unspecified)	.	-36	118	88
CC(=O)c1cccc(NC(=O)[C@H]2O[C@@H]3OC(C)(C)O[C@@H]3[C@H]3OC(C)(C)O[C@H]32)c1	111	6	93	93
O=C1/C(=C/c2cccs2)SC(=S)N1CCCC(=O)N1c2ccccc2Sc2ccccc21	99	.	118	94
CCOc1ccc(CCNC(=O)c2cc3c(s2)-c2ccccc2S(=O)(=O)C3)cc1OCC	103	-15	93	85
COc1ccc(CNC(=O)C2CCN(S(=O)(=O)c3ccc(F)cc3)CC2)cc1	109	-3	112	95
Cc1cc(C)c(OCC(=O)N/N=C/c2ccc(O)cc2O)c(Br)c1	111	-54	56	35
O=C(CSc1ncccn1)N(Cc1ccccc1)C1CCS(=O)(=O)C1 (stereo unspecified)	.	4	106	99
CC(C)C[C@H](NC(=O)C1OC1C(=O)O)C(=O)NCCCCN=C(N)N (stereo partly specified)	107	2	.	.
Cc1cccc(NC(=O)c2cccc(Br)c2)n1	.	-16	70	69
O=C(Nc1ccc(I)cn1)c1ccc(-c2ccc(Cl)cc2)o1	108	-24	119	93
Cc1nn(-c2ccc(Cl)cc2)c2sc(C(=O)NC(C)(C)CO)cc12	.	-15	34	36
Cc1c2cnn(-c3ccccc3)c(=O)c2c(C)n1CCCC(=O)Nc1ccc(F)cc1F	105	-7	117	88
Cc1ccc(NC(=O)C(=O)NCC(c2cccnc2)N2CCN(C)CC2)cc1F (stereo unspecified)	104	-8	106	87
O=C(Nc1ccc(Cl)cc1)N1CCC(CN2CCCC2)CC1	102	.	110	96
C=CCn1c(COc2ccccc2F)nnc1SC(C)C(=O)NC(N)=O (stereo unspecified)	.	-14	102	91
COc1ccc2[nH]c(C(=O)NCc3ccc4c(c3)OCO4)cc2c1	110	-5	110	96
Cc1cccc(N2CCN(C(=O)c3ccc(C)c(-n4nnc5cccnc54)c3)CC2C)c1 (stereo unspecified)	106	-12	.	.
COc1cccc(C2CC(c3ccccc3)=NN2S(=O)(=O)c2ccccc2)c1OC (stereo unspecified)	111	-5	.	.
CCCCCn1c(CN2CCCC2)nc2ccccc21	113	10	.	.
NC(=O)CSc1nnc(-c2ccco2)n1N	101	-9	116	99
O=S1(=O)c2ccccc2NC(c2ccc(F)c(F)c2)N1Cc1cccc(Br)c1 (stereo unspecified)	102	29	.	.
COc1ccc(Cn2ccc3nc(C)c(C(=O)NCc4ccc(C)cc4)cc3c2=O)cc1	97	.	93	89
O=S(=O)(Cc1ccccc1)N/N=C/c1ccc2c(c1)OCO2	108	-36	112	75
CN(Cc1ccccc1)C(=O)C1CCN(S(=O)(=O)c2ccc3c(c2)NC(=O)CS3)CC1	100	-6	.	.
Cc1ccc(CNC(=O)c2cnc3c(-c4ccc(F)cc4)c(C)nn3c2C)o1	99	.	98	96
O=C(NCCO)c1c(O)nc2ccccn2c1=O	100	-14	60	63
COc1ccc(Cl)cc1NC(=O)[C@H]1O[C@@H]2OC(C)(C)O[C@@H]2[C@H]2OC(C)(C)O[C@H]21	102	6	113	95
CCc1nnc2c3ccccc3nc(Nc3cccc(C(=O)O)c3)n12	104	-22	88	51
COc1ccc(S(=O)(=O)N2CCN(Cc3ccc4c(c3)OCO4)CC2)cc1C	97	.	104	90

Entries of single compounds as entered above:
Entry for Cc1ccccc1NC(=O)N1CC(C)CC(C)C1 (stereo unspecified) = GIV Gai3 FP = 101; HCMV NEC inh = 8; Sa growth 42C = 91; Sa growth 42C second temp = 94
Entry for COc1ccc(-n2c(Cc3ccccc3)nnc2SCc2nc(-c3ccccc3C)no2)cc1 = GIV Gai3 FP = 101; HCMV NEC inh = -30; Sa growth 42C = 96; Sa growth 42C second temp = 79
Entry for CC(=O)N(c1ccccc1)c1nc(CSc2nnc(-c3ccc(Cl)cc3)o2)cs1 = GIV Gai3 FP = .; HCMV NEC inh = -16; Sa growth 42C = 82; Sa growth 42C second temp = 88

Screening results deposited in PubChem by ICCB-Longwood Screening Facility, Harvard Medical School.
